# Bioassay records (PubChem)
# Mtb H37Rv – Confirmatory growth inhibition assay against Mycobacterium tuberculosis H37Rv, potency (AID 1949). most inactive calls were filed without a number and no value below 0 was filed. one-dose inhibition, % at 10 µg/mL; IC50 in µg/mL for titrated hits. 100,000 tested, 1.6% active;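 active = confirmed in a dose series; inconclusive = about 50% or more but not retested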;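 also: bacteria grown 7 days with compound before Alamar blue readout; 0% = untreated bacteria and 100% = reference antibiotic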
# An asterisk follows results filed as active; i = inactive; ? = inconclusive.
SMILES,Mtb H37Rv
COc1c(C)cc(Br)cc1C(=O)Nc1ccc2c(c1)OCCO2,39%
CC1=NN(C(=O)COc2ccccc2C#N)C(O)(C(F)(F)F)C1 (stereo not given),i
Cc1ccc2nc(-c3ccc(NC(=O)c4ccco4)cc3)oc2c1,3%
O=C(Nc1ccc(C(=O)N2CCOCC2)cc1)c1cccc(I)c1,i
Cc1cc(C)cc(NS(=O)(=O)c2ccc(NC(=O)c3ccc(F)cc3)cc2)c1,i
CCc1cccc(NC(=O)COc2ccc(Cl)cc2Cl)c1,i
Cc1sc(NC(=O)c2c(F)cccc2F)c(C(N)=O)c1-c1ccc(C(C)(C)C)cc1,i
CCC(C)(C)NC(=O)c1c(-c2ccccc2Cl)noc1C,i
Cc1cc(C)cc(NC(=O)CN(c2cc(Cl)ccc2C)S(C)(=O)=O)c1,i
O=C(Nc1ccccc1)c1cccc(S(=O)(=O)Nc2cccc(F)c2)c1,i
COc1ccc(S(=O)(=O)Nc2cccc(Cl)c2C)c2ccccc12,2%
N=C1C(c2nc3ccccc3s2)=C(O)CN1CCN1CCOCC1,11%
Cc1cc(=O)oc(C)c1C(=O)OCc1c(Cl)cccc1Cl,3%
CCNS(=O)(=O)c1ccc(NC(=S)NCCc2ccc(OC)c(OC)c2)cc1,i
COc1ccc(CCNC(=O)Nc2cccc3ccccc23)cc1OC,i
Cc1cc(C)c(S(=O)(=O)NCC2CCCO2)c(C)c1 (stereo not given),i
CCOc1ccc(NC(=O)CSc2nc3ccccc3c(=O)n2CC)cc1,i
O=S1(=O)C=C(SCCN2CCOCC2)c2ccccc21,i
CC1(C)CC(C(=O)Nc2nccs2)CCO1 (stereo not given),i
COc1ccc(S(=O)(=O)Nc2ccc(S(=O)(=O)Nc3cccc(Cl)c3)cc2)cc1OC,i
Cc1cccc(NC(=O)COc2c(C)ccc(C)c2C)c1C,45%
Cc1ccc(S(=O)(=O)N2CCN(S(=O)(=O)N(C)C)CC2)c(C)c1,2%
O=C(COc1cc(Cl)c(Cl)cc1Cl)NCCN1CCOCC1,i
Cn1c2ccccc2c2cc(CC(N)=O)ccc21,1%
CC1=NN(C(=O)c2cccnc2)C(O)(C(F)(F)C(F)(F)F)C1 (stereo not given),i
# Next part:
SMILES,Mtb H37Rv
COc1cc2nc(-c3ccc(C)c(C)c3)oc(=O)c2cc1OC,i
Cc1ccc(OCC(=O)Nc2ccc(C(=O)OCC(C)C)cc2)c(C)c1,1%
COC(=O)c1cccc(NC(=O)/C(=C\c2ccc(F)cc2)NC(=O)c2ccco2)c1,i
Cc1ccc(OCC(=O)NC2=NCCS2)cc1,i
COc1ccc(-c2cc(C(F)(F)F)nc(SCC(=O)NN3CCN(C)CC3)n2)cc1,i
CC1(C(=O)NCCOc2ccccc2Cl)CC1(Cl)Cl (stereo not given),3%
CCN1CCN(S(=O)(=O)c2ccc(Br)s2)CC1,3%
COc1ccc(Cl)cc1NC(=O)CCNC(=O)OCc1ccccc1,i
CCN1CCN(c2c(Cl)cccc2NC(=O)c2cccnc2)CC1,i
CCOC(=O)c1ccc2nc(C)cc(Nc3ccc(C)cc3C)c2c1,17%
Cc1ccc(S(=O)(=O)NC(C)C)cc1C(=O)O,i
O=C(Nc1ccccc1)c1cc(S(=O)(=O)N(CCO)CCO)c(Cl)cc1Cl,i
O=C(O)c1ccccc1SC1CC(=O)N(c2cccc3ccccc23)C1=O (stereo not given),i
O=C(CSc1ccccn1)Nc1ccccc1NC(=O)CSc1ccccn1,i
CCc1ccc(C2C(C#N)=C(N)N(c3cccc(Cl)c3Cl)C3=C2C(=O)CCC3)s1 (stereo not given),i
CCS(=O)(=O)N1CCN(Cc2ccco2)CC1,i
Fc1ccc(NC(=S)Nc2ccn(Cc3ccc(Cl)cc3Cl)n2)cc1Cl,i
CCOCCCNC(=O)c1c(OC)cccc1OC,i
CC(=O)Nc1nc(-c2ccc(Cl)c(Cl)c2)nc2c1c(=O)oc1ccccc12,i
Cc1c(Cl)cccc1NC(=O)COc1ccc(C(=O)NCCc2ccccc2)cc1,i
CC1CCN(S(=O)(=O)c2ccc(Cl)c(C(=O)Nc3cccc([N+](=O)[O-])c3)c2)CC1,i
O=[N+]([O-])c1ccc(C(=S)N2CCCC2)cc1,i
O=[N+]([O-])c1cccc2c(NS(=O)(=O)c3ccc(Cl)cc3)cccc12,i
Cc1ccc(NC(=O)CC(O)(C(F)(F)F)C(F)(F)F)cc1,8%
COc1ccc(CCNC(=O)c2c(-c3ccc(F)cc3)sc3nc(N)ccc23)cc1OC,4%
# Remaining list, next part.
SMILES,Mtb H37Rv
O=C(CS(=O)(=O)c1ccccc1)c1ccc(Oc2ccccc2)cc1,i
O=C(CCCOc1ccc(Cl)cc1Cl)NC(=S)Nc1ccccc1Br,i
O=C(NCc1ccccn1)c1cc(Br)ccc1Cl,i
CC(C)(C)c1cc(C(F)(F)F)c(C#N)c(SCC(=O)Nc2cccc(F)c2)n1,i
COc1cc(C=O)cc(I)c1OC(=O)Cc1ccccc1,i
CCOc1ccc(NCCC(=O)c2ccc(NS(C)(=O)=O)cc2)cc1,10%
CC(C)c1cc(C(C)C)c(S(=O)(=O)N2CCC(C(N)=O)CC2)c(C(C)C)c1,i
Cc1ccc(SCC(=O)O/N=C(\N)c2ccccc2)cc1,i
O=C(Nc1ccc(NC(=O)C2(c3ccccc3)CCCC2)cc1)c1ccccc1F,i
O=C(Cc1cccc2ccccc12)NC(=S)Nc1cccc(Cl)c1Cl,i
Nc1ccc2nc(SCC(=O)Nc3cccc4ccccc34)sc2c1,i
CN(C)c1ccc(NC(=O)Oc2ccccc2)cc1,i
CCOC(=O)N1CCN(C(=O)c2ccccc2NC(=O)c2ccc(Br)cc2)CC1,i
O=C(Oc1ccc([N+](=O)[O-])cc1)c1cc(=O)c2ccccc2o1,i
COCCNC(=O)Cn1cc(C(=O)C2CC2)c2ccccc21,i
O=C(NNC(=S)NCC1CCCO1)c1ccc(-n2cccc2)cc1 (stereo not given),i
CCOc1ccc(NC(=O)CSc2nnc(-c3ccc(OC)cc3)n2C)cc1,i
COc1ccc2c(c1)-c1nc(NC(=O)c3cccs3)sc1CC2,i
COCCNC(=O)CNS(=O)(=O)c1c(C)c(C)cc(C)c1C,i
Cc1cc(Br)c(NC(=O)c2ccc([N+](=O)[O-])cc2)cc1C,i
COC(=O)Cc1c(C)c2cc(Cl)c(OC(C)C(C)=O)cc2oc1=O (stereo not given),i
O=C(CN1CCCC1=O)N1CCOCC1,i
CCn1c(SCc2ccc(Br)cc2)nnc1-c1ccccc1,i
COc1ccc(-c2nc3ccccc3s2)cc1O,i
CN(C)CCNCc1ccc(OC2CCCC2)cc1,1%
# (list continues)
SMILES,Mtb H37Rv
CCC(Oc1cccc(NC(=O)c2ccc([N+](=O)[O-])cc2)c1)C(=O)c1ccccc1 (stereo not given),i
CCNS(=O)(=O)c1ccc2nc(NC(=O)c3ccncc3)sc2c1,i
COC(=O)c1sccc1NC(=O)C1CC1c1ccccc1 (stereo not given),i
COc1ccc(NC(=O)CN(Cc2ccccc2)S(=O)(=O)c2c(C)cc(C)cc2C)cc1OC,6%
CCOC(=O)C(Oc1ccc2c(oc(=O)c3cc(OC)ccc32)c1C)c1ccccc1 (stereo not given),?
Cc1cccc(C(C)C)c1NC(=O)C(C)c1ccccc1 (stereo not given),i
CS(=O)(=O)N(CC(=O)NC1CCCCCC1)c1ccc(Br)cc1,3%
CNC(=O)CN(C1CCCCC1)S(=O)(=O)c1ccc(F)cc1,i
CN(CC(=O)Nc1ccc(Cl)c(C(F)(F)F)c1)S(=O)(=O)c1ccccc1,i
C=CCNC(=O)C(C)Oc1ccc(C(C)(C)C)cc1 (stereo not given),i
O=[N+]([O-])c1ccc(-c2cc3ccccc3o2)cc1,i
Cc1nn(CC(=O)Nc2ccc(OC(F)(F)F)cc2)c(C)c1[N+](=O)[O-],i
O=C(COc1ccc2ccccc2c1)N=Nc1c(O)[nH]c2ccccc12,i
COc1ccc(-c2nnc(SCC(=O)Nc3ccccc3OC)o2)cc1,?
O=C(Nc1nc2ccc(F)cc2s1)c1cc(I)ccc1Cl,i
CC(C(=O)Nc1ccc(Cl)c(Cl)c1)N1C(=O)C2CC=C(Cl)CC2C1=O (stereo not given),i
CCOc1ccc(-c2cnc[nH]2)cc1[N+](=O)[O-],3%
CCOC(=O)c1sc(NC(=O)CSc2nnc(-c3ccco3)n2CC)c(C(=O)OCC)c1C,i
CC(C)C(=O)N1CCN(c2ccc(NC(=O)COc3ccc(Br)cc3)cc2)CC1,i
CSc1cccc(NC(=O)CN(c2ccccc2Cl)S(=O)(=O)c2ccccc2)c1,i
Cc1ccc(NC(=O)Cn2c(=O)oc3ccccc32)cc1C,i
Cc1cc([N+](=O)[O-])ccc1NC(=O)CSc1nnc(C(NC(=O)c2ccc(Cl)cc2)C(C)C)n1C (stereo not given),i
CCOC(=O)c1ccc(NC(=S)NC(C)c2cn(C)nc2C)cc1 (stereo not given),i
Cc1ccc([N+](=O)[O-])c(OCCCNC2CCCC2)c1,5%
Cc1cccc(OCCOCCN2CCCCCC2)c1,8%

# Arranged by count of non-hydrogen atoms (lowest first): 19 of the compounds above.
SMILES,Mtb H37Rv
O=C(CN1CCCC1=O)N1CCOCC1,i
CC1(C)CC(C(=O)Nc2nccs2)CCO1 (stereo not given),i
CCOc1ccc(-c2cnc[nH]2)cc1[N+](=O)[O-],3%
COc1ccc(-c2nc3ccccc3s2)cc1O,i
C=CCNC(=O)C(C)Oc1ccc(C(C)(C)C)cc1 (stereo not given),i
Cc1cccc(OCCOCCN2CCCCCC2)c1,8%
CCc1cccc(NC(=O)COc2ccc(Cl)cc2Cl)c1,i
Cc1ccc(NC(=O)Cn2c(=O)oc3ccccc32)cc1C,i
CC1=NN(C(=O)COc2ccccc2C#N)C(O)(C(F)(F)F)C1 (stereo not given),i
CCNS(=O)(=O)c1ccc2nc(NC(=O)c3ccncc3)sc2c1,i
Nc1ccc2nc(SCC(=O)Nc3cccc4ccccc34)sc2c1,i
COc1ccc(CCNC(=O)Nc2cccc3ccccc23)cc1OC,i
CC(=O)Nc1nc(-c2ccc(Cl)c(Cl)c2)nc2c1c(=O)oc1ccccc12,i
CCOc1ccc(NC(=O)CSc2nnc(-c3ccc(OC)cc3)n2C)cc1,i
CCc1ccc(C2C(C#N)=C(N)N(c3cccc(Cl)c3Cl)C3=C2C(=O)CCC3)s1 (stereo not given),i
COC(=O)c1cccc(NC(=O)/C(=C\c2ccc(F)cc2)NC(=O)c2ccco2)c1,i
COc1ccc(CCNC(=O)c2c(-c3ccc(F)cc3)sc3nc(N)ccc23)cc1OC,4%
CCOC(=O)c1sc(NC(=O)CSc2nnc(-c3ccco3)n2CC)c(C(=O)OCC)c1C,i
COc1ccc(NC(=O)CN(Cc2ccccc2)S(=O)(=O)c2c(C)cc(C)cc2C)cc1OC,6%

# Other records:
SMILES,Mtb H37Rv
CCSc1ccccc1C(=O)N1CCC(Cc2ccccc2)CC1,i
Cc1cccc(-c2nc(C#N)c(NCCN(C)C)o2)c1,i
N#Cc1ccccc1OCc1ccccc1F,1%
Cc1ccc(OCCCC(=O)Nc2sc3c(c2C(N)=O)CCC(C)C3)c(C)c1 (stereo not given),i
CC(=O)CN(C)S(=O)(=O)c1ccc(C)cc1,i
CC(=O)Nc1c(C)ccc(S(N)(=O)=O)c1C,i
CCCC(C)C(=O)Nc1nnc(CC(C)(C)C)s1 (stereo not given),4%
CCOC(=O)c1sc(NC(=S)N2CCN(C(=O)c3ccco3)CC2)c(C(=O)OCC)c1C,i
O=C(Nc1ccc(S(=O)(=O)N2CCOCC2)cc1)c1ccccn1,i
CCCCC(=O)Nc1ccc(NC(=O)c2cccs2)cc1OC,4%
COc1cccc(-c2nc3ccc(OC(C)=O)cc3c(=O)o2)c1,2%
COc1cc(/C=C/C2=CC(C)(C)NC(=S)N2)cc(OC)c1OC,i
COc1ccc(C2OC(=O)C(C)(C)C(=O)C2C)cc1OC (stereo not given),i
CS(=O)(=O)Nc1nnc(Cc2ccccc2)s1,i
COc1ccccc1CC(=O)NCc1ccc(F)cc1,i
O=Cc1ccc(OC(=O)c2ccccc2F)c(Cl)c1,i
COc1ccc2c(Cl)c(-c3nnc(SCC(=O)c4ccc(F)cc4)n3C)sc2c1,i
CC(=O)c1cccc(NC(=O)C(=O)NCc2ccc(Cl)cc2)c1,2%
O=C(Cc1ccc2ccccc2c1)Nc1ccccc1Br,i
Cc1ccc(O)c(Nc2nc(-c3ccc(Cl)cc3)nc3ccccc23)c1,i
CCOC(=O)C1=C(C)NC(=O)NC1c1cc(Cl)cc(Cl)c1O (stereo not given),i
CCn1cc(CNC(=S)NC2CCCC2)cn1,i
Cc1ccc(C(=O)Nc2ccc3oc(-c4cc(F)c(F)cc4Cl)nc3c2)cc1,0%
CC(=O)c1cc(F)c(N2CCCC2)cc1C,i
CCn1c(SCC(=O)Nc2cccc(C(=O)OC(C)C)c2)nnc1-c1ccccc1F,i
# Additional compounds.
SMILES,Mtb H37Rv
CS(=O)(=O)N(CC(=O)N1CCCCCC1)c1cccc(Br)c1,i
COc1ccccc1NC(=O)CN(c1ccc(Cl)cc1C)S(=O)(=O)c1ccccc1,0%
COc1ccc(NC(=S)NCc2ccc(Cl)c(Cl)c2)cc1OC,2%
Cc1ccc(S(=O)(=O)c2nc(-c3ccco3)oc2N(C)C)cc1,i
CCOCCCNC(=O)C(C)NS(=O)(=O)c1ccc(C)cc1 (stereo not given),i
Cc1ccc(SC(C)C(=O)NCc2ccc3c(c2)OCO3)cc1 (stereo not given),i
COc1ccc(C(C)(C)C)cc1NC(=S)NC1CCCC1,22%
N#Cc1c(NC(=O)CCn2cnc3ccccc3c2=O)sc2c1CCCC2,i
CCOC(=O)CCc1c(C)c2ccc(OCC(=O)c3ccc(C)cc3)c(C)c2oc1=O,i
CC(C)NC(=O)c1cccc(COc2ccccc2Br)c1,10%
CCn1cc(C=C(C#N)C#N)c2ccccc21,i
COc1ccc(-n2nnnc2Sc2nc([N+](=O)[O-])nn2C)cc1,i
CCOCCCNCc1cc(Cl)cc(Cl)c1OCC,i
O=C(Nc1cccc(C(F)(F)F)c1)c1ccccc1Cl,i
COc1c(C)cccc1C(=O)Nc1nc2cc(Cl)c(C)cc2s1,i
CSc1ccccc1C(=O)NCCc1ccc(S(=O)(=O)N2CCCCC2)cc1,i
Cn1c(CCCOc2ccc(Cl)cc2Cl)nnc1SCC(=O)Nc1cc(C(F)(F)F)ccc1Cl,i

# A portion of the library. The share of hits here may be higher or lower than overall.
